# BJeLR lethal: BJeLR cell viability loss. BJeLR (HRASV12) viability, CellTiter-Glo ATP luminescence, 48 h; reference of the scale not given here. inhibition, % (no concentration beside the values). hit rate 0.17% among 300,000. AID 1554;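 active means replicate mean above 50%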;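 further: 50 nL library stock added to about 25 µL; numbers are from one replicate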
# Bead autofluor: counter-screen for toxin protease inhibitors: compound fluorescence; fluorescence intensity (concentration not given with the values); hit rate 3.1% among 360,000; compound autofluorescence counterscreen, microsphere flow cytometry; stronger effect = higher value; AID 624483;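 active means at least 3 SD above the mean of all compounds, about 16000 in these data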;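 further: 100 nL of 1 mM stock went into each well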
# PrP UTR inh: suppresses PrP 5' UTR mRNA reporter expression; cell-based PrP 5' UTR mRNA reporter, plate reader; hit rate 0.35% among 340,000; inhibition, % (concentration not given with the values);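 active means every replicate at 50% or more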;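 further: 0 = median of the neutral control wells; tested in H4 reporter cells; numbers are from one replicate; inactives centre near -14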
# * = called active by the depositor; . = not tested or not shown. An excerpt; rates above refer to the full screens.
Molecule,BJeLR lethal,PrP UTR inh,Bead autofluor
C/C(=N\N1CCN(Cc2ccccc2Cl)CC1)c1ccc([N+](=O)[O-])cc1,-7,-14,.
COc1ccc(/C=N/Nc2ccccn2)cc1OC,-1,-64,.
COc1ccc(CCn2c(NN)nc3c2c(=O)[nH]c(=O)n3C)cc1,25,-6,.
C/C(=N\NC(=O)c1cc(-c2cccc([N+](=O)[O-])c2)n[nH]1)c1ccc(F)cc1,-5,-18,.
C[n+]1ccccc1/C=C/c1ccccc1Cl,11,0,.
C=CCNC(=S)/N=c1/ccccn1CC,-11,-26,.
CC(C)CN1CCC(=O)N([C@H](CO)c2ccccc2)CC1,-8,15,.
C/C(=N\NC(N)=O)c1ccccc1Cl,-1,-26,.
CCCOc1ccc(-c2c(C(=O)N/N=C/c3ccsc3)nnn2-c2nonc2N)cc1,-8,-36,.
Cc1nc(Nc2ccccc2)sc1C(=O)c1ccccc1,0,-35,.
CCOC(=O)c1ccc(/C=N/O)[n+](Cc2ccccc2)c1,-1,-7,.
COc1cc(C=O)ccc1OC(=O)Nc1ccccc1,-4,-30,.
O=C1NC(=O)C(=Cc2ccc(-c3ccccc3[N+](=O)[O-])o2)C(=O)N1,-6,-3,.
COc1ccc(CCNC(=O)CC(=O)N/N=C/c2ccc(Br)cc2)cc1OC,4,-80,.
Cc1cc2nc3c(=O)n(Cc4ccccc4)c(=O)[nH]c3nc2cc1N,-4,-63,.
C[N+](C)(C)CC(=O)N/N=C/c1c2ccccc2cc2ccccc12,-1,-9,.
Cc1ccc2nc(/C(C#N)=C/c3ccc(O)c(O)c3)[nH]c2c1,-1,-17,.
CSc1nc(-c2cccs2)c(C#N)c(=O)[nH]1,-6,-41,.
Cc1occc1C(=O)N/N=C/c1ccc2c(c1)OCO2,64*,-89,.
CN(C)/N=C/c1cc([N+](=O)[O-])ccc1O,7,10,.
C/C(=N\Nc1ccc(C#N)cc1[N+](=O)[O-])c1ccc(O)cc1,-5,5,.
N/C(=N\OCc1ccc([N+](=O)[O-])cc1)c1ccccn1,16,85*,.
CCc1ccc(/C=N/NC(=O)Cc2cccn2C)cc1,3,-32,.
Cc1nn(-c2cccc(Cl)c2)c2nc(-c3ccco3)cc(C(=O)O)c12,3,-21,.
O=S(=O)(Nc1ccccc1)c1ccc2c(c1)CCO2,-1,-19,.
COc1cc(/C=C2/C(C)=C(C#N)c3nc(N)c(C#N)c(C)c32)ccc1OCC(=O)O,-8,-18,.
CCC(=O)Oc1ccc2c(C)cc(=O)oc2c1C(=O)CC,6,-8,.
O=C(Cn1cnc([N+](=O)[O-])c1)NCCc1ccccc1,1,-4,.
COc1cc([N+](=O)[O-])cc(/C=N/NC(=O)c2cc(C)nc3ccccc23)c1O,1,-4,.
CCn1c(/N=C/c2ccc(OC)cc2O)nc2ccccc21,-2,-32,.

# Individual results from the list:
# N/C(=N\OCc1ccc([N+](=O)[O-])cc1)c1ccccn1 | BJeLR lethal: 16
# C/C(=N\NC(=O)c1cc(-c2cccc([N+](=O)[O-])c2)n[nH]1)c1ccc(F)cc1 | BJeLR lethal: -5
# COc1ccc(/C=N/Nc2ccccn2)cc1OC | BJeLR lethal: -1
# C[N+](C)(C)CC(=O)N/N=C/c1c2ccccc2cc2ccccc12 | BJeLR lethal: -1
# CCOC(=O)c1ccc(/C=N/O)[n+](Cc2ccccc2)c1 | BJeLR lethal: -1

# Record cards, from the list above. Order of screens: BJeLR lethal, PrP UTR inh, Bead autofluor
# C/C(=N\NC(=O)c1cc(-c2cccc([N+](=O)[O-])c2)n[nH]1)c1ccc(F)cc1 reads -5, -18, .
# CSc1nc(-c2cccs2)c(C#N)c(=O)[nH]1 reads -6, -41, .

# Additional structures:
Molecule,BJeLR lethal,PrP UTR inh,Bead autofluor
O=C(/C=N/O)Nc1ccc2sc3ccccc3c2c1,2,-17,.
O=C(O)c1ccc2c(c1)C(=O)N(CCCCCCCN1C(=O)c3ccc(C(=O)O)cc3C1=O)C2=O,-1,-10,.
O=c1[nH]c(O)c(C=Nc2ccc(Cl)cc2Cl)c(=O)[nH]1,-4,-12,.
Oc1ccccc1/C=N/NC(=S)NC1CC2C=CC1C2 (configuration not stated),7,-42,.
O=C(NC(=S)Nc1ccc2oc(=O)ccc2c1)c1cccc(F)c1,0,-26,.
COc1ccc(C2=CC(=O)C=CC2=O)cc1,99*,-15,.
O=[N+]([O-])c1cccc(/C=N/n2cnnc2)c1,-10,-9,.
C/C(Cc1ccccc1)=N\NC(=O)CNC(=O)c1ccc2c(c1)OCCO2,1,2,.
Cn1c(N)c(C(=O)N/N=C/c2ccccc2)sc1=S,-14,-16,.
COc1cc(/C=N/NC(=O)c2cccnc2)cc(Br)c1O,-11,-3,.
COc1ccc(CCNC(=O)C/C(C)=N/NC(=O)Cc2cccc3ccccc23)cc1OC,0,-4,.
C/C(=N\Nc1nccnc1Cl)c1ccc(Cl)c(Cl)c1,-2,-19,.
CCN1C(=NCCc2cccnc2)N[C@@H](c2ccccc2)C(C(=O)OC)=C1C,-5,-19,.
COc1cc(/C=N/NC(=O)c2cc(-c3cccc(Br)c3)nc3ccccc23)cc(OC)c1O,-2,-27,.
Cc1n[nH]c(C)c1CCC(=O)N/N=C/c1c(C)[nH]c2ccccc12,8,-28,.
COc1ccc(C(=O)c2ccc(OC)cc2OC)cc1,18,-37,.
Nn1c(C2CCC2)nc2ccccc2c1=O,-2,-15,.
Cc1nn(C(C)(C)C)c(C)c1/C=N/OC(=O)Nc1ccc(Cl)cc1,-4,94*,.
CCC(=O)Oc1ccc2c(c1)O/C(=C\c1ccco1)C2=O,-6,-31,.
Cc1cc(C)c2c(c1)/C(=N/NS(=O)(=O)c1ccccc1)CCC2,1,-16,.
CCN(CCO)c1nc(SC)nc2c1sc1nc(-c3ccco3)c3c(c12)CCC3,-10,-8,.
COc1cc(/C=N/N=C2\CC3CCC2(C)C3(C)C)ccc1O (configuration not stated),2,-31,.
CCCc1nnc(NC(=O)c2nc(S(=O)(=O)Cc3cccc(C)c3)ncc2Cl)s1,9,-20,.
CCCc1ccc(C(=O)NNc2ccc(F)cc2)cc1,-3,-27,.
CC(/C=N/n1c(-c2n[nH]c3c2CCC3)n[nH]c1=S)=C\c1ccco1,-2,-7,.
Cc1cc(N/N=C/c2ccc(N(C)C)cc2)nc(NCc2ccccc2)n1,-6,-20,.
COc1ccc(OC)c2c1C(=O)C(Cl)=C(Cl)C2=O,91*,-6,.
Cc1onc(-c2ccccc2)c1C(=O)N/N=C/C=C/c1ccccc1,3,-19,.
S=C(N/N=C/c1ccc2c(c1)OCO2)NC1CC2CCC1C2 (configuration not stated),2,-24,.
CN1CCN(C(=O)OC2c3nccnc3C(=O)N2c2ccc(Cl)cn2)CC1 (configuration not stated),2,-23,.
COc1cccc(/C=N/n2nnnc2N)c1O,0,-25,.
O=C(C[n+]1ccc(/C=C/c2ccccc2)cc1)c1ccc2c(c1)OCCO2,12,-19,.
Cc1nccn1CC(O)COc1ccc(Cl)cc1Cl (configuration not stated),-1,14,.
COc1ccc(/C=N/NC(=O)c2ccoc2C)cc1COc1ccc(Cl)cc1,-1,5,.
CN(Cc1ccco1)S(=O)(=O)c1nnc(NC(=O)c2cccc(Cl)c2)s1,7,-20,.
Cc1ccc(NC(=O)O/N=C/c2ccc(F)cc2)cc1,-5,-43,.
CC(Nc1ccc(Br)cc1)C(=O)N/N=C/c1ccccc1OCc1ccccc1 (configuration not stated),-8,-4,.
O=C1CN(S(=O)(=O)c2ccc(F)cc2)c2ccccc2N1,-4,-7,.
O=C(N/N=C/c1ccc(F)cc1)c1cc(-c2ccc3c(c2)OCO3)n[nH]1,1,-13,.
Cc1nn(C)cc1/C=N/NC(=O)c1ccco1,-17,-79,.
Cn1c(SCC(=O)c2cc(Cl)c(Cl)s2)nnc1-c1ccco1,-10,-49,.
O=C(Nc1ccc(F)c(Cl)c1)c1cccnc1,-3,5,.
Cc1cccc2cc(/C=N/Nc3ccc(C(=O)O)cc3)c(Cl)nc12,-11,-80,.
O=C(N/N=C/c1sc(=O)[nH]c1-[n+]1ccc2ccccc2c1)c1ccccc1[O-],-2,-5,.
Cc1cccc(C(=O)O/N=C2\CCSc3ccc(C)cc32)c1,7,-21,.
CC(C)(C)OC(=O)N1CCC(CC2CC(c3cccc(Br)c3)=NO2)(C(=O)NCC2CCCCC2)CC1 (configuration not stated),-8,-10,.
COc1ccc(/C=N/NC(=O)c2ccco2)cc1OCc1ccccc1,-9,-6,.
COc1ccc(OC)c(-c2cc(-c3cccnc3)nc(N)c2C#N)c1,-5,-20,.
O=C(NNc1ccc(Cl)cc1)c1cccs1,-6,-21,.
Cc1c(/C=N/NC(=O)c2ccc(Br)o2)cnn1C,2,-31,.
C/C(=N\O)C(C)(C)Nc1ccc(Cl)cc1,3,-2,.
CCc1n[nH]c(=S)n1/N=C/c1c(O)ccc2ccccc12,-11,12,.
O=C(N/N=C/c1ccncc1)c1nc2ccccc2c(=O)[nH]1,-2,-34,.
Cc1ccc(S(=O)(=O)/N=C/c2c(O)ccc3ccccc23)cc1,-8,6,.
Cc1cccc(CN2C(=O)/C(=C\c3ccc(C(=O)NCCCN4CCN(C)CC4)cc3)Oc3ccccc32)c1,1,-10,.
CCOc1cccc(=NC2CCCCC2)c2c(C)[nH]c(C)c12,9,-4,.
C=CCNc1nc(C(F)(F)F)nc2c1nnn2Cc1ccccc1Cl,0,4,.
COC(=O)CCCC1=CC2=CC(=O)C(C)(OC(=O)C3CCCC3)C(=O)C2=CO1 (configuration not stated),5,3,.
N#CC(C#N)=NNc1ccc(-n2ccc(C(F)(F)F)n2)cc1,59*,-9,.
O=C(c1ccc(F)cc1F)C1CCN(c2ccc([N+](=O)[O-])cn2)CC1,-1,8,.

# Additional compounds follow:
Molecule,BJeLR lethal,PrP UTR inh,Bead autofluor
Clc1ccc(C2[C@H]3CN(Cc4cccnc4)[C@H](c4ccccc4)C34CC2(c2ccccc2)C4)cn1 (some centres not stated),3,-5,.
CN1C(=O)NC(=O)/C(=C/c2ccc([N+](=O)[O-])s2)C1=O,42,5,.
O=[N+]([O-])c1ccc(N2CCCC2)nc1N1CCCC1,-15,-15,.
O=C(O)COc1ccc(/C=N/NC(=O)/C(=C/C=C/c2ccccc2)NC(=O)c2ccccc2)cc1,-12,-49,.
O=C(c1ccc(F)cc1)[C@@H]1[C@@H](C(=O)c2ccccc2)[C@@]2(C(=O)Nc3ccccc32)[C@H]2c3ccccc3C=CN12,-3,-10,.
O=C(N/N=C/c1ccccn1)NC12CC3CC(CC(C3)C1)C2,-11,-20,.
Cc1cc(C(=O)N2CCC2(C)C(=O)NS(=O)(=O)c2cccc(Cl)c2)nn1C (configuration not stated),.,.,3399
Cc1c([N+](=O)[O-])oc2c1C(=O)NCCC2,.,.,3815
CC1(C)C2CCC(CN)C1C2 (configuration not stated),.,.,2818
CC(C)(C)C(=O)Nc1ccc(N2CCN(C(=O)c3cccs3)CC2)cc1,.,.,3099
CC(C)(C)S(=O)N1Cc2cc(C(=O)NCC(F)(F)F)nc(-c3cccc(-c4cccc(F)c4)c3)c2[C@@H]1CCO (some centres not stated),.,.,5773
Cc1cccc(C)c1-n1nnnc1C(c1ccccc1OC(F)(F)F)N1CCN(C/C=C/c2ccccc2)CC1 (configuration not stated),.,.,5395
CCc1ccc([C@H]2[C@@H]3C(=O)C[C@@H]4C(=O)N(C5CCCCC5)C(=O)[C@@H]4[C@@H]3CN2S(=O)(=O)c2ccc(C)cc2)cc1,.,.,5518
O=S1(=O)CC(N2CCCC2)CN1C1CCCC1 (configuration not stated),.,.,4260
CCCC(=O)N1CCOCC1c1cc(C(=O)Nc2ccccc2)no1 (configuration not stated),.,.,4045
O=C1Nc2cnc(Cl)nc2Nc2ccccc21,.,.,6039
O=C(NCc1ccco1)c1c(Cl)cccc1Cl,.,.,2941
Cc1ccc(C)c(C(O)c2ncc(-c3cccc4ccccc34)[nH]2)c1 (configuration not stated),.,.,3644
Cc1noc(C)c1NC(=O)N(C)C[C@@H]1OCc2cnnn2CCCC(=O)N([C@@H](C)CO)C[C@@H]1C,.,.,3505
OC[C@@H]1CN(CCN2CCOCC2)C[C@H](n2cnc3c(NC4CC4)ncnc32)O1,.,.,2877
Fc1cccc(Cc2c(-c3cccc(Br)c3)nc3ccc(Br)cn23)c1,.,.,8482
COc1ccc(Cc2c(-c3cccc(Cl)c3)nc3ccc(C)cn23)c(C)c1,.,.,6349
CCNC(=O)C1(C)CCN(C(=O)c2ccc(C(=O)OC)cc2)C1 (configuration not stated),.,.,3849
CC1(C)CC(=O)C=C(c2ccc(-c3cnn(Cc4ccccc4)c3)cc2)C1=O,.,.,3165
O=C(COC(=O)c1cccc(S(=O)(=O)N2CCCCC2)c1)NCc1cccc(Cl)c1,.,.,2856
COC(=O)CCCn1cc(CN2CC(N3CCN(Cc4ccccc4F)CC3)CS2(=O)=O)nn1 (configuration not stated),.,.,5628
CCCn1c(C)cc(C(=O)CN2C(=O)NC3(CCCCCC3)C2=O)c1C,.,.,7210
CCNC(=O)C1(C)CCCN(Cc2cccc3c2OCCO3)C1 (configuration not stated),.,.,3604
CCOC(=O)C1=CCC2C(=O)N(CC)C(=O)C12 (configuration not stated),.,.,5205
CCN(CC)CCN(C)C(c1cc2ccccc2o1)c1nnnn1C(C)(C)C (configuration not stated),.,.,6123
C[C@H]1CN([C@@H](C)CO)S(=O)(=O)c2ccc(Br)cc2O[C@H]1CN(C)C(=O)CCN1CCCCC1,.,.,3734
